Compound activity (PubChem BioAssay)
Ecoli growth: E. coli growth inhibition, primary screen, OD600 | Escherichia coli growth, 23 h; stronger effect = lower value | OD600 absorbance (test concentration not listed) | hit rate 0.21% among 330,000 | AID 1053175, 2014;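 active = OD600 absorbance below the run mean of sample wells minus 3.6 SD, in any replicate, cut at about 0.56 in these data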;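 also: stock transfer was 300 nL into about 60 µL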
Numbers without * were called inactive; & = joins results of further samples.

SMILES | Ecoli growth
O=C(CON=Cc1ccc2c(c1)OCO2)Nc1cccc(Br)c1 | 0.64
CC(CC(=O)Nc1ccccn1)=NNC(=O)C(=O)Nc1cccc(Cl)c1C | 0.71
O=C(Cn1ccc(C(F)(F)F)n1)NN=Cc1cccs1 | 0.64
CC=CC=CC(=O)N1CC2(CC(c3cccc(NC(=O)CCCCC)c3)=NO2)CC1C(N)=O (stereo unspecified) | 0.67
CCCCC1CC1C(NC(=O)c1ccco1)c1ccccc1C(F)(F)F (stereo unspecified) | 0.68
C=C(C)C(=O)Nc1cccc(C2=NOC3(C2)CC(C(N)=O)N(C(=O)C=CC)C3)c1 (stereo unspecified) | 0.66
CCC1=C(OC(=O)N(CC)CC)N2C(=O)OC(=NCc3ccccc3)[C@]2(C)C2C1=CCC1C(=O)NC(=O)C12 (stereo partly specified) | 0.7
CC1(C)OC2OC(C(O)CON3C(=O)c4ccccc4C3=O)C(O)C2O1 (stereo unspecified) | 0.64
COc1cc(C=NN(C)c2ccccc2)cc(Cl)c1O | 0.65
COc1ccc(C(C)=NNC(=O)c2ccc(N(C)C)cc2)cc1 | 0.73
O=C(CNC(=O)c1cccs1)NN=Cc1ccc(O)cc1O | 0.7
COc1ccc(C2C(C(C)=O)=C(C)N=c3sc(=Cc4cc(C)n(C)c4C)c(=O)n32)c(OC)c1 (stereo unspecified) | 0.69
CC(=O)OC1C(Oc2c(O)c(C)c3c4c2C(C)CCC4C(C)CC3C=C(C)C)OCC(O)C1O (stereo unspecified) | 0.7
CCOC(=O)CCCc1ccc(C(C)=NNC(=S)NC)cc1 | 0.62
COc1cccc(C=NNC(=O)CCC(=O)Nc2ccc(Br)cc2)c1 | 0.66
Cc1ccc2c(c1)C1C(CO2)C(c2ccccc2)[C@]2(C)C(=O)Nc3ccc(Br)cc3C(=O)N12 (stereo partly specified) | 0.7
Cc1c(C(=O)N2CC3(CC(c4cccc(NC(=O)CC(c5ccccc5)c5ccccc5)c4)=NO3)CC2C(N)=O)cc([N+](=O)[O-])cc1[N+](=O)[O-] (stereo unspecified) | 0.7
Cc1ccc(NC(=S)NN=Cc2c(C)nn(-c3ccccc3)c2N2CCCC2)cc1 | 0.71
O=C(NN=Cc1cc(Br)c(Br)o1)C(O)c1ccccc1 (stereo unspecified) | 0.7
COc1ccc(C=NNC(=O)c2cccc(Br)c2)cc1CN1CCOCC1 | 0.66
Cc1ccc2nc(C)cc(NN=Cc3ccc(F)cc3)c2c1 | 0.64
CC(=O)Nc1ccc(SCC(CC(C)C)N2CCN(CC(C)C)CCC2=O)cc1 (stereo unspecified) | 0.7
Cc1ccc(S(=O)(=O)CN=C(NC(=S)N(c2ccccc2)c2ccccc2)c2ccccc2)cc1 | 0.7
ON=C1CCCc2oc3c(c21)CCCC3 | 0.72
COC(=O)c1sccc1NN=Cc1cccc(Oc2ccccc2)c1 | 0.66
COc1ccc(C=NNc2ccc(C(=O)O)cc2)cc1OC | 0.7
COC(=O)c1ccc(C23CC4(C2)C(CN(Cc2ccc(-c5ccccc5)cc2)C4c2ccccc2)C3c2ccccc2)cc1 (stereo unspecified) | 0.72
CCOC(=O)C1C2COc3ccc(Br)cc3C2N2C(=O)N(c3ccc(C(F)(F)F)cc3)C(=O)[C@@]12C (stereo partly specified) | 0.64
O=C(Cn1cc(C(F)(F)F)ccc1=O)NN=Cc1ccccc1 | 0.73
O=C(O)C(Cc1ccccc1)NC(=O)C(c1ccccc1)(c1ccccc1)c1ccccc1 (stereo unspecified) | 0.69

3 entries out of the list, ordered by molecular weight, high to low.
SMILES | Ecoli growth
COC(=O)c1ccc(C23CC4(C2)C(CN(Cc2ccc(-c5ccccc5)cc2)C4c2ccccc2)C3c2ccccc2)cc1 (stereo unspecified) | 0.72
CCOC(=O)C1C2COc3ccc(Br)cc3C2N2C(=O)N(c3ccc(C(F)(F)F)cc3)C(=O)[C@@]12C (stereo partly specified) | 0.64
COc1ccc(C=NNC(=O)c2cccc(Br)c2)cc1CN1CCOCC1 | 0.66

Next results follow.
SMILES | Ecoli growth
O=C(COc1ccccc1-c1ccccc1)NN=Cc1cccc2ccccc12 | 0.73
CN(C)Cc1c(C(=O)NN=Cc2ccc(OCc3c(F)cccc3Cl)cc2)nnn1-c1nonc1N | 0.65
COc1cc(OC)c(OC)cc1C=NNC(=O)c1ccc(CSc2nc(C)cc(C)n2)cc1 | 0.66
COC(=O)CCCC=C1SCC(NC(=O)c2ccccc2)C1=NO (stereo unspecified) | 0.72
C=CCC(CC(=O)NCCO)C(=O)NCCOC(=O)C(CC=C)Cc1ccc(F)cc1 (stereo unspecified) | 0.66
CCC(C)=NNC(=O)CNC(=O)c1ccc(Cl)cc1Cl | 0.71
CCN(CC)CCCN=C1NC(c2ccccc2)C(C(=O)OC)=C(C)N1CC (stereo unspecified) | 0.7
O=C(NN=Cc1cccc(NC(=O)c2ccc(Cl)cc2)c1)c1cccc(O)c1 | 0.62
O=C(CSCc1ccc(Cl)cc1)NN=Cc1ccc(Cl)cc1Cl | 0.74
CCOC(=O)NN=Cc1ccc(OC(=O)c2ccco2)cc1 | 0.62
CCOc1ccc(N2C(=O)CSC2=NNC(=O)COc2ccc3ccccc3c2)cc1 | 0.66
CCOc1ccc(NC(=O)C(=O)NN=Cc2ccc(CNS(=O)(=O)c3ccccc3)o2)cc1 | 0.74
CCC(=NNC(=O)CSCc1ccc(Cl)cc1)c1ccc2c(c1)OCCO2 | 0.71
CC(=NNC(=O)CNC(=O)C1COc2ccccc2O1)c1ccc2c(c1)OCCO2 (stereo unspecified) | 0.67
CCCOc1cccc(-c2cc(C(=O)NN=Cc3cccnc3)c3ccccc3n2)c1 | 0.69

Of the compounds above, these have a COOH group.
SMILES | Ecoli growth
COc1ccc(C=NNc2ccc(C(=O)O)cc2)cc1OC | 0.7
O=C(O)C(Cc1ccccc1)NC(=O)C(c1ccccc1)(c1ccccc1)c1ccccc1 (stereo unspecified) | 0.69

More compounds.
SMILES | Ecoli growth
O=C(Cn1nnc(-c2ccccc2Cl)n1)NN=Cc1ccc2c(c1)OCO2 | 0.74
COc1ccc(C(=O)NN=Cc2sc3ccccc3c2O)cc1 | 0.63
CC(C(=O)N1CCNCC1)n1cc(CCCN=C(N)N)nn1 (stereo unspecified) | 0.67
CC[C@]12C(=O)N(C)CC(C3C(=O)N(C)C(=O)C31)N2C(=O)c1ccc(Cl)c(Cl)c1 (stereo partly specified) | 0.69
NC(=NOC(=O)c1ccccc1Br)c1ccc([N+](=O)[O-])cc1 | 0.62
Cc1ccccc1OCC(=O)NN=Cc1ccncc1 | 0.65
CN(C)CCCOC1C(C(O)CO)OC2OC(C)(C)OC21 (stereo unspecified) | 0.69
O=C(NN=Cc1cccc(OC2CSC2)c1)c1ccccc1O | 0.79
CCOc1cc(C=NNC(=O)CN2CCCCC2)ccc1OCc1ccccc1 | 0.75
COC(=O)NC1CC2C3CCC4CC(OC)CC[C@]4(C)C3CC[C@]12C (stereo partly specified) | 0.64
O=C(NN=Cc1ccco1)c1cccc(NC(=O)c2cccc(Cl)c2)c1 | 0.68
O=C(NN=Cc1ccncc1)c1ccc(NC(=O)c2cccc(Cl)c2)cc1 | 0.69
CC(=O)n1cc(C2C=C(C(N)=O)OC(OCc3ccc(CO)cc3)C2)c2ccccc21 (stereo unspecified) | 0.68
Cc1onc(-c2ccccc2)c1C(=O)NN=Cc1ccc(O)c([N+](=O)[O-])c1 | 0.69
Cc1ccc(CSc2nnc(SCC(=O)NN=Cc3ccccc3OCC(=O)O)s2)cc1 | 0.67

Already shown: 3 of the compounds above.
SMILES | Ecoli growth
CC(=O)n1cc(C2C=C(C(N)=O)OC(OCc3ccc(CO)cc3)C2)c2ccccc21 (stereo unspecified) | 0.68
Cc1onc(-c2ccccc2)c1C(=O)NN=Cc1ccc(O)c([N+](=O)[O-])c1 | 0.69
Cc1ccc(CSc2nnc(SCC(=O)NN=Cc3ccccc3OCC(=O)O)s2)cc1 | 0.67

Other compounds:
SMILES | Ecoli growth
O=C(NN=Cc1cccc2ccccc12)c1cc2ccccc2o1 | 0.68
Cc1ccc(NN=Cc2c(O)cc(C)oc2=O)cc1 | 0.78
CN(C)c1ccc(/C=C/C=NNc2nc(N3CCOCC3)nc(N3CCOCC3)n2)cc1 | 0.66
O=C(NCc1nc2ccccc2[nH]1)C1=CC(C2CC2)CC(OCc2ccc(CO)cc2)O1 (stereo unspecified) | 0.68&0.7
CN1CCN(N=Cc2ccc(N(C)c3ccccc3)cc2)CC1 | 0.66
CON=Cc1ccc(Sc2ccccc2)c([N+](=O)[O-])c1 | 0.73
CC=CC(=O)Nc1cccc(C2=NOC3(C2)CC(C(N)=O)N(C(=O)Cc2ccc([N+](=O)[O-])cc2)C3)c1 (stereo unspecified) | 0.72
O=C(Nc1ccccc1Cl)C(Cl)=C(Cl)S(=O)c1ccccc1 (stereo unspecified) | 0.57
COc1ccc(C=NNC(=O)CNC(=O)c2ccc3c(c2)OCCO3)c(C(=O)O)c1OC | 0.7
CCn1ncc(C=NNS(=O)(=O)c2ccc(Cl)cc2)c1C | 0.71
CC(=NNC(=O)c1ccco1)c1ccc(NC(=O)c2cccs2)cc1 | 0.62
O=C(Cn1cnc2ccccc21)NN=Cc1ccc([N+](=O)[O-])cc1 | 0.68
Cc1cccn2c(C=NOCc3cccc(F)c3)c(-c3ccc(Cl)cc3)nc12 | 0.74
CCN(CC)c1ccc(C=NN2CCN(Cc3ccccc3Cl)CC2)cc1 | 0.65
O=C(Cn1nc2ccccc2n1)NN=Cc1cc(Cl)cc([N+](=O)[O-])c1O | 0.69
CCN1C(=O)C2C(c3ccc(C)cc3)N3C(=O)N(c4ccc(C(F)(F)F)cc4)C(=O)[C@@]3(Cc3ccccc3)C2C1=O (stereo partly specified) | 0.66
CC(=NOCC(=O)OC(C)C(=O)Nc1ccc(C)c(S(=O)(=O)N2CCOCC2)c1)c1ccc2c(c1)OCO2 (stereo unspecified) | 0.71
CC1C=C(C(=O)O)OC(OCc2ccc(CO)cc2)C1 (stereo unspecified) | 0.67&0.63
CC(CCCCC=CC(=O)O)OC1OC(C)C(O)CC1O (stereo unspecified) | 0.65
CC1COC(=O)C(NC(=O)OCC2c3ccccc3-c3ccccc32)CC=CCC(CC(=O)NC(CO)Cc2ccccc2)C(=O)N1 (stereo unspecified) | 0.7&0.72
CC(C)(C)OC(=O)CC1CC=CCC(CC(=O)NC(CO)Cc2ccccc2)C(=O)NC(Cc2ccccc2)COC1=O (stereo unspecified) | 0.64&0.7&0.71&0.69
O=C(NN=C/C=C/c1ccco1)c1cnccn1 | 0.66
Cc1ccc(C=NNC(=O)c2nnn(-c3nonc3N)c2CSc2ccc(Cl)cc2)cc1 | 0.69
Cc1cc(=O)[nH]c(NN=Cc2ccccc2Cl)n1 | 0.68
Clc1cc2c(cc1C=NNc1nc(N3CCOCC3)nc(N3CCOCC3)n1)OCO2 | 0.64
CC1CN(C(C)CO)C(=O)c2cccc(NC(=O)c3ccncc3)c2OC1CN(C)C(=O)Nc1ccccc1 (stereo unspecified) | 0.69
Cc1nn(-c2ccccc2)c(Cl)c1C=NNc1nncc(=O)[nH]1 | 0.71
Cc1nc2ccccn2c1C(=O)NN=Cc1ccccc1[N+](=O)[O-] | 0.66
NC(=O)c1cc2cc(Br)ccc2oc1=NNC(=O)c1cccc(F)c1 | 0.71
O=C(NN=Cc1ccc([N+](=O)[O-])cc1)c1ccc(COc2ccccc2-c2ccccc2)cc1 | 0.76
CC(C(=O)N1CCNCC1)n1cc(CCC(=O)O)nn1 (stereo unspecified) | 0.69
O=C(NN=Cc1cc([N+](=O)[O-])ccc1Cl)c1ccc2nc[nH]c2c1 | 0.68
NCC(Cc1ccccc1)NCCc1cc(C(F)(F)F)cc(C(F)(F)F)c1 (stereo unspecified) | 0.61
CN1CCN(CCC(=O)NN=C/C=C2\N(C)c3ccccc3C2(C)C)CC1 | 0.69
COc1ccc(C=NNC(=O)CCN2CCCCC2c2cccnc2)cc1Cn1cc([N+](=O)[O-])cn1 (stereo unspecified) | 0.73
O=c1c2ccccc2nc(COc2ccccc2)n1N=Cc1ccco1 | 0.73
CC(C)C(=O)ON=C(N)c1ccc(Oc2ccc(Cl)cc2)c([N+](=O)[O-])c1 | 0.66
COc1ccccc1C=NNC(=O)c1ccc(Br)cc1 | 0.69
Cc1ccc(CON=Cc2c(O)cc(C)oc2=O)cc1 | 0.68
O=c1c(C=NO)c(Nc2ccccc2)nc2ccccn12 | 0.69
CN(C)CCC=C1c2ccccc2COc2ccccc21 | 0.69
CC1CN(C(C)CO)C(=O)c2cccc(NC(=O)Nc3ccccc3)c2OC1CN(C)S(=O)(=O)c1cccs1 (stereo unspecified) | 0.59
CC(CCc1ccc2c(c1)OCO2)=NNC(=O)c1ccc(C)cc1C | 0.7
COCCN=c1scc(-c2cc(OC)c(OC)c(OC)c2)n1N=Cc1c(C)[nH]c2ccccc12 | 0.77
Nc1nnnn1N=Cc1ccccc1O | 0.66
O=C1C=C(c2cccc(Cl)c2)CC(c2ccc3c(c2)OCO3)C1 (stereo unspecified) | 0.71
O=C(COc1ccccc1)NCC(=O)NN=Cc1ccco1 | 0.7
O=C(COc1ccc(C=NNC(=O)c2ccccc2Br)cc1)Nc1ccccc1 | 0.69
O=C(NCCCN1CCOCC1)C(=O)NN=Cc1c(Cl)cccc1Cl | 0.7
Cc1nc2ccccc2c(=O)n1N=Cc1ccc(OC(F)F)cc1 | 0.73
CCOC(=O)C1C2COc3ccccc3C2N2C(=O)N(c3cccc(Cl)c3)C(=O)[C@@]12C (stereo partly specified) | 0.73&0.65
Cc1ccc(-c2csc(NN=C/C=C/c3ccccc3)n2)cc1 | 0.67

3 of the compounds above, comma-delimited:
Structure,Ecoli growth
O=C1C=C(c2cccc(Cl)c2)CC(c2ccc3c(c2)OCO3)C1 (stereo unspecified),0.71
CCOC(=O)C1C2COc3ccccc3C2N2C(=O)N(c3cccc(Cl)c3)C(=O)[C@@]12C (stereo partly specified),0.73&0.65
Cc1ccc(-c2csc(NN=C/C=C/c3ccccc3)n2)cc1,0.67

These rows are one share of the data; the hit share may differ from the screen's.
